Compound activity deposited in PubChem by several laboratories.
PKD1 kinase inh – blocks activity of human protein kinase D1 | Q15139 | PKD1 kinase fluorescence polarization assay | inhibition, %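 (about 10 µM by stock and volumes)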 | actives 0.056% (n = 200,000) | AID 797;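 active means inhibition of 50% or more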;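 further: controls were vehicle for no effect and a reference inhibitor for full effect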
Target sequence (Q15139 whole entry, looked up): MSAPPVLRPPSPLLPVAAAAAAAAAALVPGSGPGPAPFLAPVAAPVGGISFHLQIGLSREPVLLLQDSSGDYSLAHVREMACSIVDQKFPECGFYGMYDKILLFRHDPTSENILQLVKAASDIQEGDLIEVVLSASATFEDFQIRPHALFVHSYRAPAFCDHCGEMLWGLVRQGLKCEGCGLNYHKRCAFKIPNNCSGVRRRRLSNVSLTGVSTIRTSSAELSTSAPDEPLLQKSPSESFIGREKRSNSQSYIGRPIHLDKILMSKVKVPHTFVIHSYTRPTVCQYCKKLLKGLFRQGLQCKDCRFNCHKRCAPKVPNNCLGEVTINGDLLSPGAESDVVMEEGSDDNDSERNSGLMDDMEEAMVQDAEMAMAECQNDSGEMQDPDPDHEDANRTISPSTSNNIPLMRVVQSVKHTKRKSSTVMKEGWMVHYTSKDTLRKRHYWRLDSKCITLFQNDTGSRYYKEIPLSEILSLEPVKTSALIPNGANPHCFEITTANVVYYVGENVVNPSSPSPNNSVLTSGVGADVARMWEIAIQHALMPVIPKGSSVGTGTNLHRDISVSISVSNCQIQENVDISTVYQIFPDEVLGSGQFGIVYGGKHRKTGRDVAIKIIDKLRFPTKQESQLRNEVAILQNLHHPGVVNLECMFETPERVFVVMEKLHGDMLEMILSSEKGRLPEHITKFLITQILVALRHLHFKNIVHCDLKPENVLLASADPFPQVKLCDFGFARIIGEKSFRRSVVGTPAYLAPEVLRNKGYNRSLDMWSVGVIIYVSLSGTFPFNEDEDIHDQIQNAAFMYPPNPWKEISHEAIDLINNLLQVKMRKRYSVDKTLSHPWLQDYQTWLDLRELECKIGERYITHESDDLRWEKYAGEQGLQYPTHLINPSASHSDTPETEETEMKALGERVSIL
HSV replic up – HSV replication enhancement; HSV replication augmentation in cells, fold increase; maximum fold increase; actives 0.005% (n = 220,000);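 active means peak rise of 1.5-fold or more in the series; inconclusive means self-fluorescent or not available for retest; tested in PC3 cells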;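 further: first round at 10 µM; read as green reporter fluorescence; hits show the peak of a series up to 25 µM; 1 = signal of infected wells without compound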
INS promoter inh – TRM-6 insulin promoter activity inhibition | TRM-6 cells (human fetal islet line), insulin promoter-eGFP reporter, imaging; reporter expression induced with tamoxifen | actives 0.9% (n = 130,000) | inhibition, % at 2 µM;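 active means inhibition above the mean plus 3 SD, with well images judged a real hit on visual review, cut at about 60% in these data, passing the limit was not always enough; inconclusive means inhibition over the cutoff but images rejected on review; inactive means inhibition not above the cutoff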
GALR2 agonist – agonists of human galanin receptor 2 (GALR2) | GALR2-expressing cells, agonist activation read-out | activation, %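 (tested at 5 µM)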 | actives 0.48% (n = 140,000) | O43603 | AID 803;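 active means above mean plus 3 SD of all compounds, about 5% in these data, not always enough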;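 further: 0% = vehicle buffer wells and 100% = reference agonist at full effect; tested in CHO reporter cells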
RGS16-Gao – modulates binding between human RGS16 and Galphao. O15492+P09471. bead-based flow cytometry RGS16-Galphao binding, fluorescence; actives lie on both sides. binding response (% of control), % at 10 µM. actives 0.38% (n = 220,000);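 active means below 25% or above 175%, edge rows of some plates excepted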;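 further: Galphao activated by GDP with aluminum fluoride before binding; 100% = wells without compound and 0% = beads without RGS; some results beyond the cut were filed as inactive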
INS promoter inh cell count – also measured in INS promoter inh; calls as there; normalized cell count, %; measured here: cell count, toxicity; reference of the scale not given here;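 cells exposed to compound for 48 h; stained nuclei by imaging scaled within each plate; lower means fewer cells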
HSV replic up primary fold – also measured in HSV replic up; calls as there; fold increase; compound at 10 µM; measured here: primary screen fold increase 10 uM; tested in PC3 cells;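 GFP signal in the first replicate; 1 = infected wells without compound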
* hit, by the source's call; i = inactive; ? = inconclusive; nt = not tested or not shown.

structure,HSV replic up primary fold,INS promoter inh,GALR2 agonist,RGS16-Gao,HSV replic up,PKD1 kinase inh,INS promoter inh cell count
CC(C)(C)c1ccc(Cn2c(=N)n(CC(O)c3ccco3)c3ccccc32)cc1 (configuration not stated),nt,nt,nt,114,nt,-6,nt
Cc1c(C(=O)NCCN2CCOCC2)sc2nc(-c3ccc(F)cc3)cn12,0.77,-6,-3.2,nt,i,0,119
COc1ccc(C2N3CC4(C)CN2CC(C)(C3)C4O)cc1 (configuration not stated),0.93,nt,-1.5,113,i,-8,nt
O=C(COc1ccc(OCc2ccccc2)cc1)NC1CCOC1=O (configuration not stated),0.62,-17,-1.4,107,i,5,76
O=C(NCc1ccccc1)c1noc2c1CCCCC2,0.86,nt,-2.0,101,i,-7,nt
COc1ccc(-c2nc(C#N)c(N3CCCCCC3)o2)cc1OC,0.86,-18,0.2,103,i,-14,87
Cc1ccc(NC(=O)CS(=O)CC(=O)N(c2ccccc2)C(C)C(=O)NC2CCCC2)cc1 (configuration not stated),0.82,-30,-2.0,97,i,-4,114
Cc1noc(NS(=O)(=O)c2ccc(N/C=C/C(=O)c3ccc(F)cc3)cc2)c1C,1,21,nt,110,i,-7,101
COc1ccc(-c2noc(CCC(=O)NCCCN3CCC(C)CC3)n2)cc1,1,-5,-2.7,99,i,-8,84
Cc1onc(-c2ccccc2)c1C(=O)NCC1CCCO1 (configuration not stated),0.82,i,-2.7,110,i,1,51
CC(C)(C)C1(O)CC(C(F)(F)F)=NN1C(=O)Cc1ccc([N+](=O)[O-])cc1 (configuration not stated),1,-47,nt,99,i,-6,110
COCCCN1C(=O)C(=O)/C(=C(/O)c2ccc(OCC(C)C)cc2C)C1c1cccnc1 (configuration not stated),0.76,42,-1.3,53,i,-1,78
CCCCC(=O)Nc1cccc(NC(=O)c2cccnc2Cl)c1,1,nt,nt,105,i,nt,nt
Cc1ccc2[nH]c3c(c2c1)CCCC3C(N)=O (configuration not stated),1.1,nt,-0.1,94,i,0,nt
COc1ccccc1Nc1ncnc2nc[nH]c12,0.94,nt,-2.4,98,i,1,nt

(next part)
structure,HSV replic up primary fold,INS promoter inh,GALR2 agonist,RGS16-Gao,HSV replic up,PKD1 kinase inh,INS promoter inh cell count
COC(=O)C1CCN(Cc2cn(-c3ccccc3)nc2-c2ccc3c(c2)OCO3)CC1,0.96,nt,nt,97,i,-6,nt
CC1CCC(N2CCN(S(C)(=O)=O)CC2)CC1 (configuration not stated),1,-57,-2.3,107,i,-1,82
COc1ccc(-c2nnn(CCc3nn[nH]n3)n2)cc1,0.99,75*,-0.3,nt,i,-2,111*
Cc1coc2cc3oc(=O)cc(C)c3cc12,0.9,13,-0.6,95,i,-9,67
CCn1c(O)c(N=NC(=O)Cc2csc(N3CCOCC3)n2)c2ccccc21,1,nt,nt,102,i,13,nt
O=S(=O)(Nc1nccs1)c1ccc2c(c1)OCCO2,0.8,-7,-3.6,-592,i,-15,66
Cc1ccccc1OCCC(=O)Nc1ccc(F)c(Cl)c1,0.92,-36,-0.8,101,i,-2,120
CC(C)CNC(=O)c1cccc(NC(=O)CCc2ccccc2)c1,0.88,nt,nt,107,i,-4,nt
CN(CC(=O)Nc1ccc(F)c(Cl)c1)S(=O)(=O)c1cccc2nsnc12,0.77,-10,-0.6,104,i,-10,60
Cc1c(C(=O)O)[nH]c2c1C(=O)CC(c1ccc(Cl)cc1)C2 (configuration not stated),1.1,-30,-3.6,97,i,-12,103
Cc1cccc(N(CC(N)=O)C2SC(=O)NC2=O)c1 (configuration not stated),1.1,45,-1.6,104,i,4,105
CCOc1ccc(NC(=O)COC(=O)c2c(OC)cccc2OC)cc1,1,17,0.0,115,i,-11,132
Cc1ccc(-n2nc3cc(C)c(N)cc3n2)cc1,nt,0,9.6,97,?,-3,79
CCOC(=O)c1cnc(SCC(=O)N2CCc3ccccc32)nc1N,0.86,-77,-2.3,99,i,-10,120
CCCN(CCC)CCSc1nc(O)c(C(C)C)c(=O)[nH]1,0.86,nt,-1.2,119,i,3,nt

Additional structures
structure,HSV replic up primary fold,INS promoter inh,GALR2 agonist,RGS16-Gao,HSV replic up,PKD1 kinase inh,INS promoter inh cell count
CCOC(=O)c1c(C)[nH]c(C)c1C(=O)COC(=O)c1ccc(OC)cc1,0.92,nt,nt,104,i,0,nt
CCc1c(C)sc(NC(=O)Cn2nc(C(F)(F)F)c3c2CCCC3)c1C#N,0.89,42,-3.9,157,i,-14,82
CCCOc1ccc(C2C(C(=O)OC)=C(C)N=C3SCCC(=O)N32)cc1OCC (configuration not stated),0.93,nt,1.0,98,i,-6,nt
O=c1[nH]cc(N2CCCCCC2)c(=O)[nH]1,1.1,nt,nt,99,i,nt,nt
CC(=O)N1CC[n+]2c(-c3ccc(Cl)cc3Cl)csc21,1.1,-75,0.1,87,i,-1,97
CCO[C@H]1OC(C(=O)N2CCOCC2)=C[C@@H](C2CC2)[C@@H]1CCCO,0.93,nt,nt,98,i,1,nt
O=C(CN1CCN(C(=O)c2ccco2)CC1)Nc1ccc2c(c1)OCO2,1,-68,-0.5,nt,i,-7,128
O=C(CN1CCCC1)NCC(=O)Nc1ccc(F)cc1,0.95,18,nt,112,i,-5,172
Nc1nnc(Cc2ccccc2)s1,1,42,-2.6,103,i,-6,119
CCCCNc1c(N2CCN(C(=O)OCC)CC2)c(=O)c1=O,0.88,nt,-1.0,101,i,-9,nt
Cc1nn(CC(=O)N2N=C(C(F)F)CC2(O)C(F)F)c(C)c1[N+](=O)[O-] (configuration not stated),1.1,12,-2.3,61,i,-2,85
NC(=O)c1cnn2c(-c3cccc(C(F)(F)F)c3)ccnc12,0.89,nt,nt,100,i,nt,nt
Cc1cc(C(=O)COc2ccccc2[N+](=O)[O-])c(C)n1-c1cccc(S(=O)(=O)N2CCOCC2)c1,1,8,-0.3,103,i,-3,97
O=C1CN(C(=S)Nc2ccc(OC(F)F)cc2)CCN1,0.99,nt,nt,100,i,-4,nt
CCOC(=O)C1=C(C)C(c2ccccc2OC)NC(=S)N1 (configuration not stated),1.1,nt,-1.2,107,i,-1,nt

Continuation.
structure,HSV replic up primary fold,INS promoter inh,GALR2 agonist,RGS16-Gao,HSV replic up,PKD1 kinase inh,INS promoter inh cell count
CCOc1cc(/C=C(/C#N)C(=O)Nc2ccc(O)cc2)cc(Br)c1O,nt,-14,-0.8,103,nt,-17,93
NC(=O)CN1CCN(S(=O)(=O)c2ccc(Cl)cc2)CC1,0.97,nt,nt,107,i,-4,nt
Cc1ccccc1NCC(=O)N/N=C/c1c[nH]c2ccccc12,0.93,nt,nt,106,i,1,nt
C(=N\Nc1nc2ccccc2[nH]1)/c1ccncc1,0.97,-67,nt,110,i,-3,100
O=C(Nc1ccccc1)c1ccc(S(=O)(=O)N(CCO)CCO)cc1,0.99,77*,-0.1,96,i,-4,69*
CCOC(=O)c1c(C)n(C)c2cc(Br)c(OC)cc12,0.95,nt,nt,121,i,-5,nt
COc1ccccc1NC(=O)C(CC(C)C)NC(=O)C1CCCCC1 (configuration not stated),0.98,-46,-1.7,116,i,-2,150
CC(=O)Nc1ccc(S(=O)(=O)Nc2cc(C)c(-n3nc4ccccc4n3)cc2O)cc1,1.1,44,-1.6,97,i,-1,130
Cc1nnc(SCC(=O)Nc2sccc2C(N)=O)n1Cc1ccccc1,0.89,nt,-2.4,91,i,9,nt
CCNC(=S)Nc1scc(-c2ccccc2)c1C(=O)OCC,1,-18,-0.7,90,i,-6,83
COCCn1c(Sc2nc(C)cs2)nc2c1c(=O)[nH]c(=O)n2C,0.9,-3,-2.2,99,i,2,130
Cc1cc(C)n2c(SCC(=O)NC3CCCCC3C)nnc2n1 (configuration not stated),1,nt,nt,101,i,-3,nt
Cc1cccc(C)c1NC(=O)CCCSc1nnnn1C,0.86,nt,0.0,100,i,-5,nt
CC(C)CCNC(=O)C1CCC(=O)N1C(C)C (configuration not stated),0.87,31,-1.4,108,i,-1,51
COc1cc(NC(=O)C2CCN(S(=O)(=O)c3cccc4nonc34)CC2)cc(OC)c1,nt,nt,-0.5,101,nt,12,nt

Another view of some results above.
CCOc1ccc(NC(=O)COC(=O)c2c(OC)cccc2OC)cc1
  HSV replic up primary fold: 1; INS promoter inh: 17; GALR2 agonist: 0.0; RGS16-Gao: 115; HSV replic up: i; PKD1 kinase inh: -11; INS promoter inh cell count: 132

Cc1ccc(-n2nc3cc(C)c(N)cc3n2)cc1
  HSV replic up primary fold: nt; INS promoter inh: 0; GALR2 agonist: 9.6; RGS16-Gao: 97; HSV replic up: ?; PKD1 kinase inh: -3; INS promoter inh cell count: 79

CCOC(=O)c1cnc(SCC(=O)N2CCc3ccccc32)nc1N
  HSV replic up primary fold: 0.86; INS promoter inh: -77; GALR2 agonist: -2.3; RGS16-Gao: 99; HSV replic up: i; PKD1 kinase inh: -10; INS promoter inh cell count: 120

Next structures
structure,HSV replic up primary fold,INS promoter inh,GALR2 agonist,RGS16-Gao,HSV replic up,PKD1 kinase inh,INS promoter inh cell count
CCCCCN1CSC(=S)N(Cc2ccccc2)C1,0.92,9,-1.2,102,i,-3,171
O=C(CSc1nnnn1C1CCCC1)Nc1cccc(NC(=O)c2ccco2)c1,0.96,i,-1.4,102,i,12,31
CCOC(=O)CSc1nc(C(C)C)nc2ccccc12,0.92,-33,-0.7,105,i,-14,70
Cc1[nH]c2ccccc2c1Cc1n[nH]c(=S)n1C,0.56,-419,-1.3,103,i,2,39
CCC(=NCc1ccco1)c1c(C(F)(F)F)[nH]n(-c2nc3ccccc3s2)c1=O,0.86,17,-1.4,102,i,2,94
O=C(NCc1ccccc1Cl)c1ccc(-c2ccccc2)cc1,0.96,20,-0.1,98,i,5,140
CCCCCc1nnc(NC(=O)OCCC)s1,0.75,nt,-0.3,118,i,-4,nt
Cc1occc1C(=O)N=Nc1c(O)[nH]c2ccc(Br)cc12,0.94,nt,0.4,98,i,-6,nt
CCOc1ccc(N(CC(=O)Nc2ccc(C)c(C)c2)S(=O)(=O)c2c(C)noc2C)cc1,1.1,0,-0.3,102,i,-1,80
COc1cc(OC)cc(C(=O)N2CCC(n3c(C)nc4cc(F)ccc43)CC2)c1,nt,nt,-2.6,103,nt,3,nt
O=C(CN1C(=O)CC(c2ccco2)Sc2ccccc21)Nc1ccc2c(c1)OCCO2 (configuration not stated),0.99,-15,-1.1,99,i,-4,116
CC1=C(C(=O)NCCN2CCN(C)CC2)C2(CCC(C)CC2)OC1=O (configuration not stated),0.78,8,-1.9,102,i,1,34
O=C(NCc1cccs1)c1ccc(Cl)s1,1.1,11,0.5,94,i,1,73
CCCn1nnc(NC(=O)c2cc3ccccc3o2)n1,0.95,-27,-0.7,102,i,-10,114
CCOc1ccc(N2C(=O)c3ccccc3C2O)cc1 (configuration not stated),0.85,nt,-3.8,97,i,-2,nt

New compounds follow:
structure,HSV replic up primary fold,INS promoter inh,GALR2 agonist,RGS16-Gao,HSV replic up,PKD1 kinase inh,INS promoter inh cell count
Cc1ccc(S(=O)(=O)Cc2ccc(C(=O)N3CCCCCC3)o2)cc1,1,nt,-3.0,103,i,-6,nt
O=C(N/N=C/c1sc(N2CCOCC2)nc1-c1ccccc1)c1ccccc1F,0.96,nt,nt,90,i,nt,nt
CN1C(=O)C(Cl)(Cl)C(=O)c2ccccc21,0.81,-58,-0.5,47,i,5,105
Oc1ccc2ccccc2c1Br,0.96,33,nt,94,i,0,126
CC(C)C1=C2OC(N)=C(C#N)C(C#N)=C2C(C)CC1 (configuration not stated),1.1,nt,-2.0,100,i,8,nt
CCOC(=O)c1[nH]c2ccc(F)cc2c1NC(=O)C(C)N1CCc2cc(OC)c(OC)cc2C1 (configuration not stated),0.84,30,-1.7,101,i,-4,108
CCCCc1nc(N2CCOCC2)c(C#N)c2c1CCCC2,0.84,nt,-0.5,125,i,3,nt
N#Cc1c(-c2ccccc2)nc2n(c1=O)CCS2,0.84,-11,-1.2,105,i,-3,123
COc1cccc(NC(=O)COC(=O)CCCc2c[nH]c3ccccc23)c1,1,31,-1.6,97,i,-2,79
CCOc1cc(/C=N/N2CCOCC2)ccc1OCc1ccc(C(=O)OC)o1,0.94,nt,nt,97,i,9,nt
CC(C)c1ccc(CN2CCC(C(=O)NCc3cccnc3)CC2)cc1,1,25,-2.2,105,i,-1,118
CCOC(=O)c1sc(=S)n(CC)c1NC(=O)c1ccccc1,1.1,nt,nt,98,i,nt,nt
O=C(CCc1ccc(S(=O)(=O)NCc2ccccc2)cc1)NCc1ccc2c(c1)OCO2,0.76,-37,-0.8,102,i,-2,132
